# Compound activity deposited in PubChem BioAssay by National Center for Advancing Translational Sciences (NCATS).
# StopGo FLuc – lowers the firefly signal of an FMDV 2A StopGo reporter; 120,000 tested, 0.23% active; HEK cells with a luciferase reporter of 2A StopGo recoding; Potency, µM (titrated, usually from 57.5 µM), without a hit: at the top dose signal change, negative = less light; active = well fitted falling curve with a large enough effect; inconclusive = small, poorly fitted or top-dose-only effect; inactive = no such curve, though single readings can be large or run the other way; note: nearly all actives have a fitted effect of over 60% in size; overnight with compound
# StopGo RLuc – FMDV 2A StopGo reporter, Renilla signal. Potency, µM (top dose mostly 57.5 µM), for inactives: at the top dose signal change, negative = less light. HEK cells with a luciferase reporter of 2A StopGo recoding. 120,000 tested, 0.32% active; active means well fitted falling curve with a large enough effect; inconclusive means small, poorly fitted or top-dose-only effect; inactive means no such curve, though single readings can be large or run the other way; note: nearly all actives have a fitted effect of over 55% in size; overnight with compound
# Active calls of the source: *; ? = inconclusive; [ ] = remark or other dose. % is set by controls: 0 for no effect and ±100 for the full control effect; potency is the fitted concentration of half-maximal effect.
[1] CCOC(=O)CSc1nc2ccc(NC(=O)COc3ccc(F)cc3)cc2s1
[2] Cc1ccc(C(=O)C(Sc2ccc3c(c2)OCCO3)c2ccc(C)cc2)cc1 (stereo not given)
[3] CCOc1ccc(-c2cc(NC(=O)c3ccccc3)c(C(=O)OC)s2)cc1
[4] COc1cc(C(=O)Nc2ccc3oc(=O)ccc3c2)ccc1OC(F)F
[5] CCCNC(=O)NC(=O)COC(=O)c1ccc(-n2nc(C)cc2C)cc1
[6] COC(=O)C(C)N1C(=O)S/C(=C/c2cccs2)C1=O (stereo not given)
screen / no.,1,2,3,4,5,6
StopGo FLuc,-6.8%,84.4%[activator],-8.1%,3.5%,-20.6%,120.4%[activator]
StopGo RLuc,-4.3%,128.2%[activator],-9.3%,-8.7%,-16.3%,9.2%

[7] COc1ccc(-n2nnnc2C2CCN(S(=O)(=O)c3ccccc3Cl)CC2)cc1
[8] Cc1cccc(Cn2c(-n3nc(C)c(C)c3C)nc3c2c(=O)[nH]c(=O)n3C)c1
[9] CCOC(=O)c1c(S(=O)(=O)NCC(=O)NCc2ccccc2Cl)c(C)n(C)c1C
[10] Cc1ccc(-n2c(/C=C/c3cccs3)nc3ccccc3c2=O)cc1C
[11] CCCCN(CC)CCCNC(=O)CS(=O)(=O)Cc1nc(-c2ccc(C)cc2)oc1C
[12] Cc1ccc(Nc2c(-c3ccc(N4CCOCC4)cc3)nc3ncccn23)cc1
screen / no.,7,8,9,10,11,12
StopGo FLuc,?,-7.1%,0.0%,9.3%,-12.4%,0.8%
StopGo RLuc,?,-6.9%,143.6%[activator],-11.6%,-16.4%,-2.9%

[13] Cc1cccc(-n2nnnc2C2(N3CCCCC3)CCCCC2)c1
[14] CCOc1ccc2oc(=O)cc(CN3CCN(Cc4ccccc4F)CC3)c2c1
[15] CCOc1ccc(CNC(=O)c2ccc3[nH]c(C)c(C)c3c2)cc1OC
[16] O=C(Nc1nc2c(s1)CCCCCC2)Nc1ccc(F)cc1F
[17] COc1ccccc1NC(=O)C1CCN(C(=O)c2sc3nc[nH]c(=O)c3c2C)CC1
[18] COc1ccccc1CNCc1ccco1
screen / no.,13,14,15,16,17,18
StopGo FLuc,8.5%,-25.4%,-15.6%,88.4%[activator],1.6%,5.4%
StopGo RLuc,0.0%,-21.5%,-1.8%,0.3%,-3.9%,5.9%

[19] CN(C)c1nc(N)nc(COc2ccc(Cl)c3ccccc23)n1
[20] Cc1ccc(CCNC(=O)C2CCCN(c3nc(C)nc4onc(C)c34)C2)cc1 (stereo not given)
[21] COC(=O)C1CCN(C(=O)Cn2nc(-c3cccs3)c3ccccc3c2=O)CC1
[22] CC(C)(Oc1ccc(Cl)cc1)C(=O)Nc1nc2ccc(S(C)(=O)=O)cc2s1
[23] N#C/C(=C/c1ccc(O)cc1)c1nc(-c2ccc(-c3ccccc3)cc2)cs1
[24] Cc1cccc(NC(=O)c2nc3ccccc3nc2Cl)c1C
screen / no.,19,20,21,22,23,24
StopGo FLuc,26.8%,37.4%,22.7%,5.2%,-2.3%,0.3%
StopGo RLuc,-13.3%,33.1%,0.7%,-17.8%,-9.3%,-27.8%

[25] CCOC(=O)c1cccc(NC(=O)CCc2c(C)nn(-c3ccc(N4CCCC4)nn3)c2C)c1
[26] CC(=O)c1ccc(N2CCN(S(=O)(=O)c3ccc4c(c3)CC(C)N4C(=O)C3CCC3)CC2)cc1 (stereo not given)
[27] CCOc1ccc(N(CC)C(=O)c2noc3c2COc2ccc(C)cc2-3)cc1
[28] C=CCNC(=S)Nc1ccc(Br)cc1
[29] Cn1c(NC(=O)c2cc(Br)ccc2Cl)cc(=O)n(C)c1=O
[30] Cc1cc(Br)ccc1NC(=O)CC1CC2CCC1C2 (stereo not given)
screen / no.,25,26,27,28,29,30
StopGo FLuc,8.5%,-8.4%,0.0%,0.0%,-3.4%,0.0%
StopGo RLuc,3.0%,-0.3%,-11.5%,-43.9%,2.1%,42.8%[activator]

[31] COc1ccccc1CNC(=O)c1cccc(N2CCCS2(=O)=O)c1
[32] O=C(Nc1ccc(S(=O)(=O)Nc2ncccn2)cc1)c1ccccc1Cl
[33] COc1ccc(-c2cc3ccc(OS(=O)(=O)c4ccccc4)cc3oc2=O)cc1
[34] Cn1c(=O)c2c(ncn2CC(=O)NCCc2ccc(F)cc2)n(C)c1=O
[35] CCOc1ccc(-c2cn3c(n2)sc2cc(C(=O)NCCCN4CCCCC4)ccc23)cc1
[36] COc1ccc(Cl)cc1NC(=O)CSc1nnc(C)n2c1cc1occc12
screen / no.,31,32,33,34,35,36
StopGo FLuc,9.2%,25.8%,24.5%,17.1%,0.9%,11.8%
StopGo RLuc,0.3%,-12.4%,11.5%,2.4%,-7.5%,22.9%

[37] CCc1cccc(C)c1NC(=O)c1nn(-c2ccccc2)c(=O)c2ccccc12
[38] CCCn1nc(C(=O)N(CC)c2ccccc2C)c2ccccc2c1=O
[39] CNC(=O)CN1c2ccc(Br)cc2-c2ccccc2S1(=O)=O
[40] N#C/C(=C\c1ccc(OCc2ccc(C#N)cc2)cc1)c1nc2ccccc2[nH]1
[41] C#CCn1c(C2CC(=O)N(c3ccc(OC)cc3)C2)nc2ccccc21 (stereo not given)
[42] Cc1c(NC(=O)c2ccc(C#N)cc2F)cccc1-c1nc2ccccc2o1
screen / no.,37,38,39,40,41,42
StopGo FLuc,8.7%,?,16.1%,-10.4%,2.5%,-0.3%
StopGo RLuc,3.8%,?,8.8%,3.98µM*,26.7%,-20.1%

# 3 entries from above, arranged by SMILES length, lowest first:
[24] Cc1cccc(NC(=O)c2nc3ccccc3nc2Cl)c1C
[29] Cn1c(NC(=O)c2cc(Br)ccc2Cl)cc(=O)n(C)c1=O
[4] COc1cc(C(=O)Nc2ccc3oc(=O)ccc3c2)ccc1OC(F)F
screen / no.,24,29,4
StopGo FLuc,0.3%,-3.4%,3.5%
StopGo RLuc,-27.8%,2.1%,-8.7%

# (listing goes on)
[43] O=C(C1CC1)N1CCN(C(=O)C2CC(=O)N(c3cccc(C(F)(F)F)c3)C2)CC1 (stereo not given)
[44] CCOc1ccc(NC(=O)CCn2cccn2)cc1
[45] COc1cc(C2SCC(=O)Nc3c2c(C)nn3-c2ccc(C)cc2)ccc1O (stereo not given)
[46] CCCSC1=NC2(CCN(C(=O)NC3CCCCC3)CC2)N=C1c1ccc(Cl)cc1
[47] Cc1occc1-c1nnc(SCC(=O)Nc2ccc3c(c2)OC2(CCCCC2)O3)o1
[48] CC(Sc1nc(Cl)nc2nc[nH]c12)C(=O)N1CCN(c2ccccc2F)CC1 (stereo not given)
screen / no.,43,44,45,46,47,48
StopGo FLuc,4.2%,64.3%[activator],19.5%,-12.9%,147.7%[activator],-5.6%
StopGo RLuc,-0.5%,-7.9%,4.9%,-2.9%,-1.4%,-5.0%

[49] C=CCNC(=O)CCNC(=O)N1CCN(C(=O)c2cc3ccccc3[nH]2)CC1
[50] CCc1ccc(C(=O)Nc2c(NC3CCCCC3)c3ccccc3oc2=O)cc1
[51] CCn1c(SCc2cc3c(cc2Br)OCCO3)nc2cc(S(N)(=O)=O)ccc21
[52] O=C(Nc1ccc(F)c(F)c1)C1CCCN(C(=O)Cc2cccc3ccccc23)C1 (stereo not given)
[53] CC(C)N(Cc1ccccc1)C(=O)c1nc(-c2ccc(Cl)cc2)n2c1CCCCC2
[54] Cc1ccc(-c2nnc(Nc3ccc(Br)cc3)c3ccccc23)cc1S(=O)(=O)N1CCN(C)CC1
screen / no.,49,50,51,52,53,54
StopGo FLuc,0.5%,14.1%,?,-0.6%,-11.7%,-7.1%
StopGo RLuc,-6.9%,-1.0%,?,5.4%,-4.7%,-0.8%

[55] CNS(=O)(=O)c1cc(-c2c(C)nn3c2NC(=O)CCC3=O)ccc1C
[56] CC(C)(C)c1ccc(C(=O)Nc2ccc(F)cc2F)cc1
[57] CSc1ccccc1NC(=O)CN(C)C(c1ccccc1)c1ccccc1
[58] COC(=O)c1c(NC(=O)c2cc(=O)c3cc(C)cc(C)c3o2)sc2c1CCC2
[59] N#Cc1c(NC(=O)CSc2ncnc3ccccc23)sc2c1CCCCC2
[60] COc1ccc(CNC(=O)Cn2nnc(-c3ccccc3F)n2)cc1
screen / no.,55,56,57,58,59,60
StopGo FLuc,-0.4%,26.7%,0.0%,-17.4%,20.8%,-15.2%
StopGo RLuc,12.3%,0.0%,38.0%[activator],-7.7%,-11.6%,-13.0%

[61] CN(C)c1oc(-c2ccc(COc3ccccc3)o2)nc1C#N
[62] Cc1cc(NS(=O)(=O)c2ccc(NC(=O)COc3ccccc3Br)cc2)no1
[63] COc1ccccc1C(=O)Nc1nc2nc(C)cc(=O)n2[nH]1
[64] COCCNc1oc(-c2ccc(Cl)cc2)nc1C#N
[65] COc1cccc(N2CCN(C(=O)c3cccn3-c3nnc(N4CCCC4)s3)CC2)c1
[66] COc1ccc(NC(=O)Nc2ccc(F)cc2F)c(OC)c1
screen / no.,61,62,63,64,65,66
StopGo FLuc,0.0%,-7.5%,24.6%,241.7%[activator],-5.1%,97.2%[activator]
StopGo RLuc,25.5%,55.6%[activator],-4.2%,56.9%[activator],-4.1%,0.9%

# Filtered by structure, the compounds so far with a furan ring, fused or not (four)
[18] COc1ccccc1CNCc1ccco1
[36] COc1ccc(Cl)cc1NC(=O)CSc1nnc(C)n2c1cc1occc12
[47] Cc1occc1-c1nnc(SCC(=O)Nc2ccc3c(c2)OC2(CCCCC2)O3)o1
[61] CN(C)c1oc(-c2ccc(COc3ccccc3)o2)nc1C#N
screen / no.,18,36,47,61
StopGo FLuc,5.4%,11.8%,147.7%[activator],0.0%
StopGo RLuc,5.9%,22.9%,-1.4%,25.5%

# Additional compounds
[67] CC(C)(C)c1coc2cc3oc(=O)c4ccccc4c3cc12
[68] O=C(c1ccco1)N1CCC(C(=O)N2CCCCC2)CC1
[69] CSC1=N/C(=C\c2cccc(Cl)c2)C(=O)S1
[70] CCOC(=O)C1CCN(C(=O)C2CCN(C3=NS(=O)(=O)C(c4ccc(C)c(C)c4)=C3C)CC2)CC1
[71] Cc1onc(-c2ccccc2)c1-c1ccc(S(N)(=O)=O)cc1
[72] CC[C@@H](C)[C@H](NC(=O)CCn1ccc2ccc(F)cc21)C(=O)O
screen / no.,67,68,69,70,71,72
StopGo FLuc,163.8%[activator],14.5%,-1.4%,-5.7%,-11.5%,6.8%
StopGo RLuc,14.9%,1.1%,-0.4%,21.6%,34.4%[activator],0.5%

# Given tab-delimited: part of the list above
nr	molecule	StopGo FLuc	StopGo RLuc
67	CC(C)(C)c1coc2cc3oc(=O)c4ccccc4c3cc12	163.8%[activator]	14.9%
69	CSC1=N/C(=C\c2cccc(Cl)c2)C(=O)S1	-1.4%	-0.4%
70	CCOC(=O)C1CCN(C(=O)C2CCN(C3=NS(=O)(=O)C(c4ccc(C)c(C)c4)=C3C)CC2)CC1	-5.7%	21.6%
71	Cc1onc(-c2ccccc2)c1-c1ccc(S(N)(=O)=O)cc1	-11.5%	34.4%[activator]

# Continued.
[73] Cc1ccc(C(NS(=O)(=O)c2ccc(C)cc2)c2cccs2)cc1 (stereo not given)
[74] O=S(=O)(Cc1nnnn1-c1ccccc1)c1ccccc1
[75] CCc1ccccc1NS(=O)(=O)c1ccc(-c2cnc(C3CC3)o2)cc1
[76] CCOC(=O)c1c(C)[nH]c(C)c1S(=O)(=O)NCC(=O)N1CCN(c2ccccc2F)CC1
[77] S=c1sc2c(s1)SCCCCS2
[78] Cc1sc(C=O)cc1CN1CCOCC1
screen / no.,73,74,75,76,77,78
StopGo FLuc,?,-11.7%,?,-16.5%,0.0%,13.5%
StopGo RLuc,-56.7%,19.4%,16.2%,135.9%[activator],11.0%,1.9%

[79] O=C(COc1ncnc2c(Cl)cc(Cl)cc12)Nc1ccc(F)c(F)c1F
[80] COc1ccc(-c2nc(Nc3ccc(Cl)cc3)sc2C)cc1
[81] CCOc1ccc(-c2nc(SCC(=O)Nc3ccc(C)c(C)c3)n3[nH]c(=O)cc3n2)cc1
[82] CCOc1cc(C2c3c(-c4c(C)cc(C)cc4O)n[nH]c3C(=O)N2CCO)ccc1O (stereo not given)
[83] N#Cc1c(-c2ccc(Cl)cc2Cl)csc1N
[84] Cc1ccc(NC(=O)Cn2c(=O)n(CCC(=O)NCc3ccc4c(c3)OCO4)c(=O)c3sccc32)c(C)c1
screen / no.,79,80,81,82,83,84
StopGo FLuc,-13.1%,121.9%[activator],-13.3%,87.7%[activator],0.0%,23.6%
StopGo RLuc,-17.2%,48.9%[activator],-6.6%,42.8%[activator],58.0%[activator],3.7%

[85] O=C(COC(=O)c1cc(-c2cccs2)nc2ccccc12)NCC1CCCO1 (stereo not given)
[86] Cc1cccc(N(C)C(=O)c2cnc(N3CCOCC3)c3ccccc23)c1
[87] Cc1cccc(NC(=O)c2oc3ccc(S(=O)(=O)N4CCC5(CC4)OCCO5)cc3c2C)c1C
[88] COc1ccc(NC(=O)c2ccc(NC(=O)N3CCSc4ncccc43)cc2)cc1
[89] Cc1coc2c(C)c3oc(=O)c(CC(=O)NCCc4ccc(Cl)cc4)c(C)c3cc12
screen / no.,85,86,87,88,89
StopGo FLuc,6.2%,-5.5%,-14.9%,2.5%,-11.8%
StopGo RLuc,-5.2%,19.7%,36.1%[activator],5.3%,-6.9%
